# From PubChem
# c-Myc SMM = binders of human c-Myc, primary screen, biochemical, small molecule microarray, anti-His fluorescence; His-c-Myc binding; calls only; hit rate 1.5% among 17,000;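 active = spot fluorescence over background with P-value below 7% in all four replicate spots, showing protein binding; compounds were printed on slides so no solution concentration is given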;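 note: score is binary with 100 for all four spots passing and 0 otherwise; about 2 pmol printed per array spot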
# ID4 binder = binders of human ID4 protein, primary screen, biochemical, small molecule microarray, single point. hit rate 1.2% among 31,000. calls only. Flag-ID4 binding, fluorescence F/B. DNA-binding protein inhibitor ID-4 (Homo sapiens), P47928;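 active = spot signal over background at p below 0.07 in all four prints; compounds were printed on slides so no solution concentration is given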;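 note: a binder raises fluorescence above local background on the spot; about 2 pmol printed per array spot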
# Target sequence (P47928 whole entry, looked up): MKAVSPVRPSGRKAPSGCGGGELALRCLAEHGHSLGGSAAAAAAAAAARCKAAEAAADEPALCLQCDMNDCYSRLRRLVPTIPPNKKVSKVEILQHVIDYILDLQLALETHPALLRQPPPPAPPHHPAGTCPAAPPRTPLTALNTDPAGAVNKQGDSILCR
# STAT3 SMM = STAT3 binders, primary screen, biochemical, small molecule microarray, single point, set 2 | Signal transducer and activator of transcription 3 (Homo sapiens), P40763 | His-STAT3 binding, anti-His fluorescence | calls only | hit rate 0.2% among 17,000 | AID 624138, 2012;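 active = compounds whose four printed spots each show fluorescence over background unusually high for their array block, chance value under 7%; compounds were printed on slides so no solution concentration is given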;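 note: about 2 pmol printed per array spot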
# mut p53 SMM = binders of human mutant p53, primary screen, biochemical, small molecule microarray, anti-GST fluorescence; mutant tumor protein p53 (GST-tagged), Homo sapiens; small molecule microarray binding; calls only; hit rate 0.4% among 17,000; AID 624136, 2012;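 active = compounds whose four printed spots each glow above background more than chance allows, each with a p-value under 7%; compounds were printed on slides so no solution concentration is given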;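 note: about 2 pmol printed per array spot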
# Calls only; i = inactive; . = not tested or not shown. Only part of the results is shown (hit frequency here may not be typical).
1) N=c1nc(N2CCCCC2)cc(N)n1O
2) CCN(CC)CCOc1ccc(Cc2ccccc2)cc1
3) COc1ccc(-c2cc(C(F)F)nn2-c2ccc(S(N)(=O)=O)cc2)cc1F
4) CCN(CCCCOC(=O)c1ccc(OC)c(OC)c1)C(C)Cc1ccc(OC)cc1 (centres undefined)
5) O=C(CCN1CCN(CCO)CC1)N1c2ccccc2Sc2ccc(C(F)(F)F)cc21
6) CCc1cccc(CC)c1NC(=O)CN(CC(=O)O)CC(=O)O
7) CC(C)(C)NCC(O)COc1cccc2c1CC(O)C(O)C2 (centres undefined)
8) CN(C)CCCSc1ccccc1NC(=O)/C=C/c1ccccc1

screen / no.,1,2,3,4,5,6,7,8
c-Myc SMM,i,i,i,i,i,i,i,i
ID4 binder,i,i,i,i,i,i,i,i
STAT3 SMM,i,i,i,i,i,i,i,i
mut p53 SMM,i,i,i,i,i,i,i,i

9) CCc1ccccc1OC[C@@H](O)CN[C@H]1CCCc2ccccc21
10) COc1cc(N)c(Cl)cc1C(=O)N[C@@H]1CCN(CCCOc2ccc(F)cc2)C[C@@H]1OC
11) COc1cc(N)c(Cl)cc1C(=O)N[C@H]1CCN(CCCOc2ccc(F)cc2)C[C@H]1OC
12) Cn1ccc2cc3c(cc21)CCN3C(=O)Nc1cccnc1
13) C=CCN1C[C@H](C(=O)N(CCCN(C)C)C(=O)NCC)C[C@@H]2c3cccc4[nH]cc(c34)C[C@H]21
14) CN(C(=O)c1c(O)c2ccccc2n(C)c1=O)c1ccccc1

screen / no.,9,10,11,12,13,14
c-Myc SMM,i,i,i,i,i,i
ID4 binder,i,.,i,i,i,i
STAT3 SMM,i,i,i,i,i,i
mut p53 SMM,i,i,i,i,i,i

# Filtered by structure: the compounds so far with a halogen
3) COc1ccc(-c2cc(C(F)F)nn2-c2ccc(S(N)(=O)=O)cc2)cc1F
5) O=C(CCN1CCN(CCO)CC1)N1c2ccccc2Sc2ccc(C(F)(F)F)cc21
10) COc1cc(N)c(Cl)cc1C(=O)N[C@@H]1CCN(CCCOc2ccc(F)cc2)C[C@@H]1OC
11) COc1cc(N)c(Cl)cc1C(=O)N[C@H]1CCN(CCCOc2ccc(F)cc2)C[C@H]1OC

screen / no.,3,5,10,11
c-Myc SMM,i,i,i,i
ID4 binder,i,i,.,i
STAT3 SMM,i,i,i,i
mut p53 SMM,i,i,i,i

# By substructure, those above containing a Cl atom
10) COc1cc(N)c(Cl)cc1C(=O)N[C@@H]1CCN(CCCOc2ccc(F)cc2)C[C@@H]1OC
11) COc1cc(N)c(Cl)cc1C(=O)N[C@H]1CCN(CCCOc2ccc(F)cc2)C[C@H]1OC

screen / no.,10,11
c-Myc SMM,i,i
ID4 binder,.,i
STAT3 SMM,i,i
mut p53 SMM,i,i
